Screening results deposited in PubChem BioAssay by ICCB-Longwood Screening Facility, Harvard Medical School.
Sa helicase inh: blocks Staphylococcus aureus DNA helicase | AID 485395 | 0.05% of 120,000 active | purified S. aureus helicase, fluorescence unwinding assay; about half of the hits fall short of the stated cut | inhibition, %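 (tested at about 80 µM)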;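 active means both duplicates at 50% or more, or one of them with a favoured structure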;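 further: 0% = mean of negative control wells and 100% = mean of positive control wells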
MgrA-DNA mod: alters Staphylococcus aureus MgrA binding to DNA | fluorescence polarization | inhibition, %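 (about 10 µg/mL by stock and volumes)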 | 0.13% of 84,000 active | AID 602314;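 active means above 50% in either of two replicates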;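 further: 0% = protein plus DNA without compound and 100% = DNA alone without protein; higher means less MgrA bound to DNA so lower polarization; one replicate is shown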
* = called active by the depositor; · = not tested or not shown.

Sa helicase inh | MgrA-DNA mod | SMILES
· | 1.8 | CCOC(=O)C1=C(C)N=c2s/c(=C\c3c[nH]c4ccccc34)c(=O)n2C1c1cc(Br)c(OC)cc1OC (stereo not drawn)
· | -0.2 | OC[C@H]1O[C@H](O)[C@H](NNc2ccccc2)[C@@H](O)[C@@H]1O
· | -2.2 | Fc1ccc2[nH]c3c(c2c1)CN(Cc1ccc(Cl)cc1Cl)CC3
5 | 0.0 | Cc1ccc(C(=O)N(CC#N)CC#N)cc1
-15 | · | COC(CNC(=O)c1csc2c1CCCCC2)OC
12 | 1.1 | CCC(=O)Nc1ccc(-c2nc3ccc(NC(=O)CC)cc3[nH]2)cc1
-1 | · | CCOC(=O)C1=C(C)Nc2ccccc2N=C1NC(=O)Cn1c(=O)oc2ccccc21
8 | 1.9 | O=C(NC(=O)c1ccccc1)Oc1ccc(F)cc1
9 | -1.5 | CCCC(=O)N1CC(=O)Nc2ccc(C)cc2C1c1ccccc1 (stereo not drawn)
11 | 13 | O=c1/c(=C\c2ccncc2)sc2nc3ccccc3n12
-4 | · | O=C(CCNC(=O)c1ccco1)Nc1ccccc1
-15 | · | CSCCn1c(-c2ccccc2)cc(C(=O)N2CCOCC2)c1C
· | -1.6 | CSC(N)=Nc1cccc(Cl)c1Cl
-8 | · | Cn1cnnc1SCc1ccc(C(=O)N/N=C2\CCSC2)cc1
5 | · | O=c1[nH]c2ccc(S(=O)(=O)N3CCN(c4cccc(C(F)(F)F)c4)CC3)cc2[nH]1
-36 | · | CCCN1C(=O)c2cc(C(=O)O)ccc2C1O (stereo not drawn)
· | -0.8 | C=CCN1C(=O)CN2c3ccccc3C(C)(C)C12C (stereo not drawn)
7 | 0.2 | CC(CN1CCCCC1)OC(=O)C1c2ccccc2Oc2ccccc21 (stereo not drawn)
· | 2.1 | COc1ccccc1C(C#N)c1cccc(Cl)n1 (stereo not drawn)
-10 | · | Cn1c(CCNC(=O)c2ccccc2)nc2ccccc21
-11 | · | COc1ccc(-c2nc(N3CCCC3)nc3n[nH]c(N)c23)cc1
10 | · | Nc1ccc2c(c1)OCCOCCOCCO2
-9 | · | O=C(Nc1noc2c1COc1ccccc1-2)N1CCN(c2ccccc2F)CC1
· | -5.9 | O=C(Oc1cccc2c1CCC2=O)c1ccccc1
14 | -5.8 | Cn1c(C(=O)O)nc2ccccc21
· | 19 | Cn1c(=O)sn(-c2cccc3ccccc23)c1=O
· | -0.6 | CC(=O)Nc1nc2ccc(NC(=O)c3ccc(N)cc3)cc2s1
3 | · | CN(Cc1ccccc1)S(=O)(=O)c1ccc2c(c1)CCN2C(=O)CCC(=O)O
-3 | · | Cc1ccc2nc(COC(=O)CNC(=O)c3ccc(Br)o3)cc(=O)n2c1
· | 3.2 | CCOC(=O)c1cc(=O)oc2cc(O)ccc12

Individual results from the entries so far.
Entry of `C=CCN1C(=O)CN2c3ccccc3C(C)(C)C12C` (stereo not drawn) in MgrA-DNA mod: -0.8
Entry of `Cn1c(C(=O)O)nc2ccccc21` in MgrA-DNA mod: -5.8

Three neighbouring compounds from above, for reference:
Sa helicase inh | MgrA-DNA mod | SMILES
3 | · | CN(Cc1ccccc1)S(=O)(=O)c1ccc2c(c1)CCN2C(=O)CCC(=O)O
-3 | · | Cc1ccc2nc(COC(=O)CNC(=O)c3ccc(Br)o3)cc(=O)n2c1
· | 3.2 | CCOC(=O)c1cc(=O)oc2cc(O)ccc12

New compounds follow:
Sa helicase inh | MgrA-DNA mod | SMILES
20 | 2.2 | O=C(NC1CCCCCCC1)C1CCCC1
-5 | · | Cc1nc2ccc(NC(=O)C3=COCCO3)cc2s1
35 | · | CCOc1ccc(NC(=O)c2ccccc2NC(=O)CN2CCOCC2)cc1
5 | 2.7 | CCN1C(=O)/C(=C/c2ccc(C(C)C)cc2)NC1=S
-8 | -0.3 | Nc1ccc(-c2nc3c(Cl)c(N)ccc3[nH]2)cc1Cl
9 | · | OC(CON=C1c2ccccc2-c2ccccc21)Cn1nnc2ccccc21 (stereo not drawn)
-15 | · | N#C/C(=N\Nc1ccc(F)cc1)C(=O)NCC1CCCO1 (stereo not drawn)
· | -1.8 | O=S(=O)(NCc1ccc(-c2cccs2)cc1)c1ccc(N2CCOCC2)nc1
-2 | -1.9 | CS(=O)(=O)N1CCc2cc(S(=O)(=O)Nc3ccc4c(c3)COC4=O)ccc21
9 | 0.3 | CNC(=O)CSc1nnc2c(C)cc3ccc(OC)cc3n12
6 | · | Cc1cc(C)c(C(=O)COC(=O)c2ccc(O)cc2)c(C)c1
· | -0.1 | O=C1CC23CCCCCCC2(C1)CC(=O)C3 (stereo not drawn)
21 | · | O=C(Nc1ccc2c(c1)C(=O)NC2=O)c1ccccc1
8 | -1.5 | COc1ccc(NC(=O)C(C)n2cccc2)cc1 (stereo not drawn)
· | 2.9 | C/C=C(\C)C(=O)Nc1nncs1

Brought forward from above: 2 entries; new compounds follow.
Sa helicase inh | MgrA-DNA mod | SMILES
8 | -1.5 | COc1ccc(NC(=O)C(C)n2cccc2)cc1 (stereo not drawn)
· | 2.9 | C/C=C(\C)C(=O)Nc1nncs1
5 | -0.5 | Cc1ccc(C)c2nc(SCC(=O)NC3CCCCC3)c(C#N)cc12
· | -2.5 | CC1(C)CCc2cc(S(=O)(=O)NCCN3CCCC3)ccc2O1
10 | · | CSc1cccc(NC(=O)Cn2cnc(S(=O)(=O)N3CCc4ccccc43)c2)c1
5 | · | O=C(NCCNc1cccc2ccccc12)c1ccco1
-2 | 0.9 | CCCNc1nc(Cl)nc(NCCC)n1
-19 | · | CC1Cc2ccccc2N1Cc1nc2ccccc2c(=O)[nH]1 (stereo not drawn)
-13 | · | COc1ccc(/C=C/C(=O)Nc2nc3ccccc3s2)cc1
· | -1.3 | COCOc1ccc(C(=O)CC(=O)c2ccccc2O)cc1
10 | · | CC1Cc2nc(SCC(N)=O)n(C)c(=O)c2S1 (stereo not drawn)
-5 | · | O=C(Cc1ccccc1)NCc1ccc2c(c1)OCO2
-20 | · | CCOC(=O)Cc1csc(NC(=O)c2cccs2)n1
· | -1.1 | COC(=O)c1ccc(C(=O)Nc2ccc3nc(NC(C)=O)sc3c2)cc1
13 | -0.1 | CCc1ccc(NS(=O)(=O)c2ccc3[nH]cc(C(=O)N4CCCC4)c(=O)c3c2)cc1
9 | -0.9 | COc1ccc(CCN2CN=C(NS(=O)(=O)c3ccc(C)cc3)NC2)cc1OC
· | -1.1 | CC1(C)OC2OC(CO)C(O)C(O)C2O1 (stereo not drawn)
13 | 1.2 | CC(=C1C(=O)c2ccccc2C1=O)N1CCC(C(N)=O)CC1
11 | · | CCOC(=O)C1CCCN(CC(O)COc2ccccc2Br)C1 (stereo not drawn)
· | -1.3 | Nc1ccccc1C(=O)Nc1ccc(Cl)cc1
10 | · | CCC1CN(C(=O)CCC(=O)NCc2ccc(F)cc2)c2cc(Cl)ccc2O1 (stereo not drawn)
-15 | · | O=C(O)[C@H](Cc1ccc(O)cc1)N1C(=O)c2ccccc2C1=O
4 | · | Cc1cc(OCC(=O)N(C2CC2)C2CCS(=O)(=O)C2)ccc1Cl (stereo not drawn)
· | -2.1 | Nc1ccc(SCC(=O)O)c(C(=O)O)c1
0 | 0.7 | C=CCC(CC=C)(NC(=O)c1ccccc1)c1ccccc1
· | 0.1 | O=C1C=CC(=O)N1Cc1ccc2c(c1)OCO2
19 | · | CCc1ccc(S(=O)(=O)N2CCN(S(=O)(=O)c3ccc(CC)cc3)C(C)C2)cc1 (stereo not drawn)
12 | · | Cn1c(C(C#N)C(=O)c2n[nH]c(=O)c3ccccc23)nc2ccccc21 (stereo not drawn)
-36 | · | Cn1c(=O)cc(SCC(=O)Nc2ccccn2)c2ccccc21
2 | · | C#CCn1c(=NC(=O)C(C)C)sc2cc(Br)ccc21
6 | -3.4 | Cc1nnc(N(C)C(=O)c2ccccn2)s1
12 | · | COc1ccc(C2CC(=O)CC(=O)C2)cc1
-13 | · | Cn1c(SCC(=O)NC2C3CC4CC(C3)CC2C4)nnc1-c1cccnc1 (stereo not drawn)
2 | · | CC1=C/C(=N/NC(=O)c2c[nH]c3ccccc23)CC(C)(C)C1
9 | · | C=CCNc1nc(-c2cccs2)c(CC(=O)O)s1
5 | · | O=C(CSc1nc(=O)n2ccccc2n1)NC1CCCC1
-2 | 2.3 | O=C(c1ccc(F)cc1)c1ccc(N2CCCCC2)cc1
1 | · | OCCCc1nc2ccc(Cc3ccc4nc(CCCO)[nH]c4c3)cc2[nH]1
· | 1.4 | Cc1cc(CSC(=N)N)c(C)cc1CSC(=N)N
17 | · | c1csc(Cn2c(-c3cccs3)nc3ccccc32)c1
-1 | 3.0 | O=C(COC(=O)c1ccco1)NCC1CCCO1 (stereo not drawn)
-2 | · | O=C(NCC1CCCO1)/C(=C\C=C/c1ccccc1)NC(=O)c1ccccc1 (stereo not drawn)
-7 | -0.8 | CCn1c(=Nc2ccc(C)cc2)ccc2cc(C)ccc21
· | -1.9 | O=C(CCn1c(=O)oc2ccccc21)NCCN1CCCCC1
10 | 1.1 | Cc1ccc(N(C)C(=O)n2cnc3ccccc32)cc1
5 | · | COc1ccccc1NC(=O)Nc1ccc(N2CCOCC2)cc1
· | -0.8 | CCOC(=O)c1cnn(-c2cc(Cl)cc(Cl)c2)c1C(C)C
· | 3.2 | FC(F)(F)c1ccnc(=S)[nH]1
· | -0.9 | Nc1cc(Nc2ccc(Br)cc2)nc(N)n1
-19 | · | O=c1[nH][nH]c(=S)n1-c1ccc2c(c1)OCCO2
10 | -0.4 | O=C(O)c1ccc(N=Cc2ccc(-c3ccc(Cl)cc3)o2)cc1

Retrieved one by one from the entries so far (3):
Sa helicase inh | MgrA-DNA mod | SMILES
-19 | · | O=c1[nH][nH]c(=S)n1-c1ccc2c(c1)OCCO2
10 | -0.4 | O=C(O)c1ccc(N=Cc2ccc(-c3ccc(Cl)cc3)o2)cc1
· | -0.9 | Nc1cc(Nc2ccc(Br)cc2)nc(N)n1

Only part of the results is shown; count on the stated rates, not on these rows.
